gsp agonist: gsp mutant agonism; AID 624287; hit rate 0.13% among 340,000; Potency, µM (top dose mostly 76.9 µM), inactives show at the highest dose activation (cAMP increase), actives largely listed as activators; gsp mutant cells, cAMP HTRF, 30 min; control for the full effect not named in the record; active = well fitted activation curve with a large enough effect; inconclusive = small, poorly fitted or top-dose-only effect, or another doubt; inactive = no such curve, though single readings can be large or run the other way; cell line not stated here;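 also: phosphodiesterase inhibitor Ro 20-1724 added with compounds to block cAMP breakdown; potency is read from the fitted curve at half-maximal effect; nearly all actives have a fitted effect of over 60% in size; about a fifth of the inactives were tested at one dose only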
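Cells in DMEM/10% FBS with G418 were pretreated with compounds in DMSO plus […] (300 uM stock) for 30 min at 37C. cAMP was measured by HTRF (cAMP-d2 plus anti-cAMP antibody-K) after 30 min at room temperature.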
gsp antag: antagonists of gsp mutant (McCune-Albright syndrome). gsp-mutant cells, cAMP HTRF, 30 min; control for the full effect not named in the record. Potency, µM (top dose mostly 76.9 µM), without a hit: at the highest dose activity change, negative = inhibition, usual class: inhibitors. hit rate 0.4% among 340,000. AID 624288; active = falling curve of any shape with a large fitted effect; inconclusive = falling curve, mostly with a smaller effect; inactive = flat or rising curve; cell line not stated here;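 also: intracellular cAMP measured with PDE inhibitor Ro 20-1724 present during compound exposure; potency is read from the fitted curve at half-maximal effect; % is scaled to controls: 0 for no effect and ±100 for the full control effect; nearly all actives have a fitted effect of over 65% in size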
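HTRF cAMP measurement after 30 min RT detection following 30 min, 37C compound treatment alongside […] (added as 300 uM solution) in G418-selected cells seeded at 2000/well and grown 16–24 h.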
Menin-MLL FL inh: displaces fluorescein MLL peptide from human menin. FP activity change, % at 61.4 µM. Fluorescence polarization, fluorescein-MLL peptide displacement from menin. AID 1766. 290,000 tested, under 10 active; inconclusive = falling polarisation curve, or a change in total fluorescence; inactive = total fluorescence flat and polarisation flat or rising; no compound was filed as active; the % refers to the polarisation; negative = inhibition;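 also: % of control where 0% means no effect; inhibitors lower the polarisation; unlabelled MLL peptide was the positive control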
D2 PAM: positive allosteric modulators of human D2 dopamine receptor | P14416 | DiscoveRx D2 beta-arrestin cells, luminescence, 90 min; 100% = 57 uM dopamine signal | potentiation, % (test concentration not listed) | hit rate 0.23% among 360,000 | AID 624464; active = potentiation of 50% or more; inconclusive = 30% to 50%; inactive = 30% or less;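 also: compound concentration not given in the record; tested on top of an EC20 dose of dopamine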
Target sequence (P14416 whole entry, looked up): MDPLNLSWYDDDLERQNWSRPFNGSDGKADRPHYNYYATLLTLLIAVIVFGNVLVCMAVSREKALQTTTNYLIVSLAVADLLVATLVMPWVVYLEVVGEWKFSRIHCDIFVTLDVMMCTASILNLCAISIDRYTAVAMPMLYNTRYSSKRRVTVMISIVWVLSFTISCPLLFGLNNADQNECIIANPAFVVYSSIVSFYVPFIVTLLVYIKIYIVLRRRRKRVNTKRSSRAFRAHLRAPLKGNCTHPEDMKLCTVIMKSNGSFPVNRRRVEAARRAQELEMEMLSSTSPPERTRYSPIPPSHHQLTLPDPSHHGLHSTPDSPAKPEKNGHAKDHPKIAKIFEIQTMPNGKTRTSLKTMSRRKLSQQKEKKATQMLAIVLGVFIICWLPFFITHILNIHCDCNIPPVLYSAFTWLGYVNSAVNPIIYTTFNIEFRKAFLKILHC
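D2 cells co-treated with compound plus 50 nM dopamine (EC20) for 90 min at 37 deg C to detect potentiation. Beta-arrestin recruitment was read as enzyme-fragment luminescence after 1 h at ambient temperature. Full response was set by 57 uM dopamine.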
ClpP mod: qHTS Assay for Activators of ClpP. ATP-dependent Clp protease proteolytic subunit (Bacillus subtilis (strain 168)), P80244. purified B. subtilis ClpP, FRET peptide cleavage, 20 min. Potency, µM (highest dose often 57.5 µM), for the others: at the top dose activity change, negative = active. hit rate 1.9% among 340,000. AID 651965, 2013; active = well fitted falling curve with a large enough effect; inconclusive = small, poorly fitted or top-dose-only effect; inactive = no such curve, though single readings can be large or run the other way; also: potency is read from the fitted curve at half-maximal effect; the source files actives as falling curves though it sought activators and does not explain the sign; nearly all actives have a fitted effect of over 65% in size; many hits overshoot -100%
Target sequence (P80244 whole entry, looked up): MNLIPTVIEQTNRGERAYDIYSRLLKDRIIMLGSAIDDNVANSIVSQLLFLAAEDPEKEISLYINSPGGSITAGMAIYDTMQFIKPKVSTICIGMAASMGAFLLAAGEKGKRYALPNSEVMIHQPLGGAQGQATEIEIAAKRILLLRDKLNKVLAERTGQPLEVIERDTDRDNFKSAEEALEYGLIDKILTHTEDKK
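ClpP 10 microg/mL final, pH 8 Tris/KCl buffer with BSA, glycerol, Tween-20; compound pinned in; FRET-FV substrate; RT 20 min; Ex320/Em430; ΔFRET vs ADEP 5.8 microM, DMSO, no enzyme.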
TRPV1 potentiator: human TRPV1 potentiation. Q8NER1. TRPV1-expressing cells, Fluo-8 calcium influx, capsaicin EC20 potentiation; host cell line not named in the record; control for the full effect not named in the record. potentiation, % at 8.33 µM. hit rate 0.02% among 320,000. AID 540277; active means potentiation above 80%; inconclusive means 30% to 80%; inactive means below 30%; also: 0% is about no effect
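Cells expressing TRPV1 were dye-loaded with Fluo-8 and read kinetically: 10 s baseline, 3 min after compound (agonist portion), then 2 min after EC20 capsaicin (allosteric enhancer portion). Calcium-bound dye fluorescence at 480/520 nm.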
Sfp PPTase inh: Sfp phosphopantetheinyl transferase inhibition; Q9F4F7; Biochemical Sfp PPTase activity, qHTS; Potency, µM, for inactives: max response, negative = inhibition, most hits filed as inhibitors; hit rate 3.5% among 310,000; AID 1490; active = well fitted inhibition curve with a large enough effect; inconclusive = small, poorly fitted or top-dose-only effect, or another doubt; inactive = no such curve, though single readings can be large or run the other way;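 also: the enzyme is Sfp with the accession as filed and its product quenches rhodamine fluorescence; potency is read from the fitted curve at half-maximal effect; 0% = enzyme reaction without inhibitor and -100% = no enzyme wells; top concentration of the series not given in the record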
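Fluorescence-quenching assay: 15 nM Sfp-PPTase preincubated 15 min at room temperature with compound, then 5 uM rhodamine-CoA and 12.5 uM BHQ-2-labelled YbbR peptide added. Fluorescence (ex 525/em 598 nm) read at start and after 30 min; difference gives rate.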
* marks the source's active call; other numbers are inactive results; ? = inconclusive; · = no result given; & = joins results of further samples; [ ] = dose if it differs, or a comment.

#	compound	gsp agonist	gsp antag	Menin-MLL FL inh	D2 PAM	ClpP mod	TRPV1 potentiator	Sfp PPTase inh
1	Cc1ccc(Cl)cc1N1CCN(Cc2nc3ccsc3c(=O)[nH]2)CC1	4.6%	-12.0%	-0.8	-24.3	-4.2%	7.7	3.2%
2	C[C@@H]1CN([C@H](C)CO)C(=O)c2c(c3ccccc3n2C)-c2ccccc2CO[C@H]1CN(C)C(=O)CCC(F)(F)F	-42.6%[inhibitor]	·	·	1.9	-10.4%	·	·
3	COc1ccc(NC(=O)CSc2nc(C)cs2)c(OC)c1	-14.4%	4.9%	-0.8	5.9	2.8%	2.4	10.7%
4	CCNC(=O)CN(c1ccc(F)cc1)S(=O)(=O)c1ccc2c(c1)OCCO2	29.2%	2.0%	-5.9	-3.8	·	2.0	-1.7%
5	C#CCn1cc(/C=N/NC(=O)COc2cccc3cccnc23)c2ccccc21	26.0%	2.2%	5.8	-12.8	-5.6%	11.8	-27.5%
6	COc1ccccc1N1CCN(C(=O)C2CCN(S(=O)(=O)c3ccc4c(c3)CC(C)N4C(C)=O)CC2)CC1 (stereo not given)	-18.7%	?	0.3	-9.3	1.9%	3.9	14.4%
7	COc1ccc(C(=O)Nc2ccc(C(=O)N3CCCC3)cc2)cc1[N+](=O)[O-]	-7.9%	-2.0%	-4.5	17.8	?	5.4	-3.7%
8	CN(c1cccc(NC(=O)c2ccccc2N(C)S(C)(=O)=O)c1)S(C)(=O)=O	-9.1%	14.0%	1.0	-7.9	-1.3%	16.7	9.9%
9	CCN(CC)C(=O)CC(c1ccccc1)c1ccco1 (stereo not given)	4.6%	-4.9%	2.2	1.5	0.2%	-9.8	-16.3%
10	COc1ccc(NC(=O)CC(c2ccccc2)c2ccco2)cc1 (stereo not given)	2.6%[15.4 µM]	0.0%	1.6	-5.3	-1.8%	-12.6	44.7µM*
11	C/C(=N/NC(=O)CNC(=O)c1cccnc1)c1ccc([N+](=O)[O-])cc1	-3.9%	1.4%	-4.4	-2.1	·	-5.1	8.9%
12	COc1ccc(/C=N/NC(=O)c2ccc(Br)cc2)cc1Cn1cc(Cl)cn1	-32.6%[15.4 µM]	8.0%	-0.5	-16.1	·	0.8	9.8%
13	FC(F)(F)c1ccccc1-n1c(CN2CCCCC2)n[nH]c1=S	-1.4%	6.3%	2.4	0.2	·	-2.5	-21.2%
14	CCCN1C(=O)N(c2cccc(C)c2)C(C)(O)CC1(C)C (stereo not given)	-50.8%[inhibitor]	-4.3%	-1.0	-10.0	0.0%	·	-3.2%
15	COc1ccc(S(=O)(=O)N(CC(=O)NCc2cccnc2)c2ccc(C)cc2)cc1OC	3.1%[15.4 µM]	-1.7%	·	3.9	·	3.4	19.6%
16	COc1ccc(C2CC(c3cccc(OC)c3)n3nc(N)nc3N2)cc1 (stereo not given)	2.9%	-2.5%	0.5	-1.2	-3.4%	6.6	13.5%
17	Cc1cc(=O)n2nc(N3CCC(C(=O)Nc4c(F)c(F)c(F)c(F)c4F)CC3)sc2n1	-0.7%	-1.8%	-5.2	-4.0	-1.7%	-0.4	4.9%
18	Cc1ccc(NC(=O)C(OC(=O)c2ccc(F)cc2)c2ccccc2)cc1Cl (stereo not given)	26.3%	-4.9%	4.3	-17.7	2.4%	17.6	30.1%
19	Cn1c(=O)c2c(nc(NC3CCCCC3)n2CC(=O)C23CC4CC(CC(C4)C2)C3)n(C)c1=O	2.5%	8.0%	0.8	-3.2	-4.0%	8.3	-1.9%
20	O=C(CN1CCSC1=NCc1ccccc1)c1ccc(Cl)c(Cl)c1	-2.8%	3.7%	0.1	-35.9	-18.1%	-1.3	?
21	Cc1cccc(/C=N\NC(=O)c2ccc(Cl)cc2)c1O	10.8%	-1.9%	9.8	-14.5	·	-2.9	16.4%
22	O=C(O)C(NC(=O)C1CCCN1C(=O)OCc1ccccc1)c1ccccc1 (stereo not given)	?	-4.3%	5.1	-4.7	0.8%	?	7.2%
23	Fc1ccc(N=Cc2ccc[nH]2)cc1	4.6%[15.4 µM]	0.9%	-3.8	-5.6	·	2.9	3.7%
24	CC(C)(C)c1ccc(C2=CC(c3ccccc3F)n3ncnc3N2)cc1 (stereo not given)	0.9%	-16.3%	·	-18.2	4.0%	·	·
25	CC(O)c1nc2ccccc2n1CCCOc1ccccc1 (stereo not given)	-1.6%[15.4 µM]	9.2%	-6.8	-7.0	·	-17.7	4.3%
26	CCOC(=O)C(=NC(C)(C)C)NNc1cc(Cl)ccc1Cl	-31.7%[inhibitor]	-13.8%	-4.4	-24.4	1.1%	1.8	-7.0%
27	CC(=O)Nc1ccc(Nc2ncnc3c2cnn3-c2ccccc2)cc1	14.4%	-3.4%	3.5	-18.1	313.3%	5.2	16.3%
28	Cc1ccc(C(=O)Nc2cccc(C(=O)N/N=C/c3ccc(O)cc3)c2)cc1	24.8%	-11.2%	-0.9	-5.1	·	7.1	-0.8%
29	COc1ccc(Cl)cc1NC(=O)CN(C)C(=O)c1cc(C)oc1C	11.6%	5.4%	·	-4.6	-3.7%	-13.9	·
30	OCC1(CCc2ccccc2)CCCN(CCCC(F)(F)F)C1 (stereo not given)	5.2%	-15.4%	-0.7	-4.7	-3.3%	-6.4	7.5%

#	compound	gsp agonist	gsp antag	Menin-MLL FL inh	D2 PAM	ClpP mod	TRPV1 potentiator	Sfp PPTase inh
31	Cc1ccc(-n2c(C)cc(=O)cc2C)c(C)c1	-27.5%	30.8%[activator]	2.9	-1.4	0.8%	-0.7	-7.9%
32	O=C(Nc1ccc(F)cc1F)c1ccco1	-15.3%	4.5%	-1.8	3.3	-2.1%	5.9	-4.8%
33	O=C(N/N=C/c1cccc([N+](=O)[O-])c1)C1CC1c1ccccc1 (stereo not given)	10.1%[15.4 µM]	-2.1%	1.5	-10.5	-14.3%	-4.4	20.4%
34	COC(=O)C1CCN(Cc2ccc(C)cc2)CC1	-1.1%	2.8%	0.4	14.6	-1.8%	-10.8	13.8%
35	Cc1ccc(Cn2c(=O)oc3ccccc32)cc1	17.3%	-1.1%	1.9	-7.8	-1.7%	-1.2	16.2%
36	CCOC(=O)C1OC1(c1ccccc1)c1ccccc1 (stereo not given)	-2.4%[15.4 µM]	8.8%	·	-21.1	1.1%	·	·
37	Cc1c(CCC(=O)O)c(=O)oc2cc(O)ccc12	?	-5.3%	0.1	-6.8	74.3%	-9.3	21.3%
38	CCc1c(C)nc(SCC(=O)N2CCCCC2C)[nH]c1=O (stereo not given)	-18.7%	-0.3%	-5.3	-37.3	0.4%	2.2	-7.1%
39	Cc1ccc(-n2ncc3c2CC(C)(C)CC3NC(=O)c2ccccn2)cc1 (stereo not given)	12.5%	-30.9%	-4.0	-5.2	-5.2%	-17.7	0.4%
40	Cc1ccc(C)c(SCC(=O)NC(=O)NCc2ccccc2)c1	-17.3%	10.8%	0.9	-5.3	-4.7%	9.1	2.1%
41	COc1ccc(CN2CCC(=O)N([C@H](CO)Cc3ccccc3)CC2)cc1OC	10.6%	10.7%	0.0	-9.2	1.3%&-0.7%	-6.0	16.0%
42	Cc1ccc(C2(O)C(=O)c3ccccc3C2=O)c(O)c1C	-2.2%[15.4 µM]	4.2%	3.4	-4.5	·	3.1	18.1%
43	Cc1c(C(=O)NN)nc2ccccn12	-58.4%[inhibitor]	7.2%	5.0	-1.8	-4.2%	-2.2	-7.7%
44	COc1ccc(NS(=O)(=O)c2ccc(-c3cnc(C4CC4)o3)cc2)cc1OC	-5.3%	6.7%	·	-4.5	4.9%	-8.9	10.9%
45	Cc1nc(NCCCn2ccnc2)c2oc3ccccc3c2n1	6.5%	10.3%	1.9	-7.4	0.2%	3.6	-10.5%
46	C[C@@]12C(=O)N(Cc3ccco3)CC(=O)N1[C@H]1c3cc(Cl)ccc3OC[C@@H]1[C@@H]2c1ccccc1	16.2%	-10.0%	·	-3.1	-1.4%	·	·
47	COCCNC(=O)C(C)OC(=O)C1=Cc2ccccc2OC1 (stereo not given)	16.9%	-0.2%	-1.2	-22.6	-11.9%	5.5	11.5%
48	c1cnc(SCCCOc2ccc3ccccc3c2)nc1	5.8%	?	0.7	-31.3	-4.3%	1.7	-10.4%
49	O=C(CC1Nc2ccccc2NC1=O)NC1CCCCC1 (stereo not given)	10.4%	4.5%	-4.4	-3.5	?	?	-2.1%
50	O=C(NCCN1CCN(S(=O)(=O)c2ccc([N+](=O)[O-])cc2)CC1)C(=O)Nc1ccccc1	-0.1%[15.4 µM]	0.2%	-0.2	0.8	28.2µM*	?	12.3%
51	CCCCNC(=O)CNC(=O)c1nn(-c2ccc(OC)c(Cl)c2)c(=O)c2ccccc12	?	1.2%	-2.2	-7.2	120.6%	-8.5	-12.0%
52	CC(Oc1ccccc1)C(=O)Nc1cccc(-c2nc3ccccc3[nH]2)c1 (stereo not given)	-26.2%	-15.4%	0.7	-7.8	35.5µM*	-8.3	2.1%
53	O=C(/C=C/c1ccc(Cl)cc1)NC1CC2CCC1C2 (stereo not given)	1.0%[15.4 µM]	7.5%	0.6	-8.8	·	-9.9	-24.9%
54	COc1ccc(C(=O)N2CCC(C(N)=O)CC2)cc1S(=O)(=O)N1CCCC1	7.2%	21.9%	·	-0.5	0.0%	-6.3	·

2 entries from above, in transposed form.
45: Cc1nc(NCCCn2ccnc2)c2oc3ccccc3c2n1
46: C[C@@]12C(=O)N(Cc3ccco3)CC(=O)N1[C@H]1c3cc(Cl)ccc3OC[C@@H]1[C@@H]2c1ccccc1

| assay / entry | 45 | 46 |
| --- | --- | --- |
| gsp agonist | 6.5% | 16.2% |
| gsp antag | 10.3% | -10.0% |
| Menin-MLL FL inh | 1.9 | · |
| D2 PAM | -7.4 | -3.1 |
| ClpP mod | 0.2% | -1.4% |
| TRPV1 potentiator | 3.6 | · |
| Sfp PPTase inh | -10.5% | · |
